Mtb H37Rv: Mycobacterium tuberculosis H37Rv growth inhibition, cell based, confirmatory dose response (AID 1949) | most inactive calls were filed without a number and no value below 0 was filed | inhibition, % at 10 µg/mL; hits with a dose series show IC50 in µg/mL | hit rate 1.6% among 100,000;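 active means confirmed in a dose series; inconclusive means about 50% or more but not retested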;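 further: bacteria grown 7 days with compound before Alamar blue readout; 0% = untreated bacteria and 100% = reference antibiotic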
Starred values were filed as active, the others as inactive; i = inactive; ? = inconclusive.

SMILES	Mtb H37Rv
COc1ccc(S(=O)(=O)N(CC(=O)N2CCc3ccccc3C2)c2cccc(Cl)c2)cc1	i
CC(C)COc1ccc(C(=O)Nc2ccc(S(=O)(=O)Nc3nccs3)cc2)cc1	i
CCOc1ccc(C2NC(=O)NC(C)=C2C(=O)Nc2ccc(C)cc2)cc1 (stereo unspecified)	i
O=C(Nc1ccc(I)cc1C(=O)NCc1cccnc1)c1ccco1	i
COc1ccc(OC)c(N(CC(=O)O)S(C)(=O)=O)c1	i
CC(=O)NS(=O)(=O)c1ccc(NC(=O)c2cc(-c3ccccc3C)nc3ccccc23)cc1	i
COc1ccccc1CNC(=S)Nc1ccc(Cl)cc1Cl	i
CCc1ccc(OCC(=O)Nc2ccc(S(=O)(=O)N3CCCCCC3)cc2)c(Br)c1	i
CCOC(=O)N1CCN(C(=O)CN(c2ccccc2)S(C)(=O)=O)CC1	i
COc1cc(NC(=O)COc2ccc(C(C)(C)c3ccccc3)cc2)c(OC)cc1Cl	i
COc1ccc(NC(=O)c2ccccc2N(C)S(=O)(=O)c2ccc(C)cc2)cc1OC	i
O=C(NCc1ccccc1F)c1ccc(C#CC2(O)CCCCC2)cc1	10%
C=CCNC(=O)C(=O)NC1CCCCC1C (stereo unspecified)	i
CC12CN(C(=S)Nc3ccccc3)CC(C)(CN(C(=S)Nc3ccccc3)C1)C2	i
Cc1ccc(NC(=O)COc2ccc(Cl)cc2)cc1[N+](=O)[O-]	38%
O=[N+]([O-])c1ccccc1S(=O)(=O)NC1CC2CCC1C2 (stereo unspecified)	0%
CCc1cccc(CC)c1NC(=O)c1ccc(OC)cc1	i
Cc1cccc(OCC(=O)O/N=C(\N)c2ccccc2Cl)c1	1%
CCC(CC)c1nnc(NC(=O)c2c(-c3ccccc3Cl)noc2C)s1	i
COc1cc(C(=O)N2CCN(C(=O)c3cccnc3)CC2)cc(OC)c1OC	i
COC(=O)C1=CN(C2CC2)C=C(C(=O)OC)C1c1ccc(C(F)(F)F)cc1	i
Cc1cc(C)c(C)c(S(=O)(=O)N2CCN(C(=O)c3ccco3)CC2)c1C	8%
Cc1ccccc1C(=O)Nc1c(C)cccc1C	i
CCOC(=O)c1c(NC(=O)c2ccc([N+](=O)[O-])cc2)sc(C(=O)N(C)C)c1C	i
O=C(COc1ccc(S(=O)(=O)N2CCCCC2)cc1)NC1CC1	i

Continued; the last 3 above are carried over.
SMILES	Mtb H37Rv
Cc1ccccc1C(=O)Nc1c(C)cccc1C	i
CCOC(=O)c1c(NC(=O)c2ccc([N+](=O)[O-])cc2)sc(C(=O)N(C)C)c1C	i
O=C(COc1ccc(S(=O)(=O)N2CCCCC2)cc1)NC1CC1	i
CCOC(=O)c1cc2n(c1/N=C/N(C)C)-c1ccccc1C2=O	i
NC(=O)CSc1nnc(-c2cccnc2)s1	i
CN(C)S(=O)(=O)c1ccc(NC(=O)c2ccc(Br)o2)cc1	2%
Cc1ccc(OCC(=O)N2CCOCC2)c(C)c1	i
COc1ccc(CCNC(=S)N2CC(C)OC(C)C2)cc1OC (stereo unspecified)	1%
O=C(CN(Cc1ccc(F)cc1)S(=O)(=O)c1ccccc1)N1CCN(c2ccc(F)cc2)CC1	i
COC(=O)C1=CN(CCc2ccc(F)cc2)C=C(C(=O)OC)C1c1cccs1	7%
COc1ccc(OC(=O)c2cc3cc(Br)ccc3oc2=O)cc1	i
Cc1sc2ncnc(SC(C)C(=O)OC(C)C)c2c1C (stereo unspecified)	i
COc1c(C)cc(Br)cc1C(=O)NC(=S)Nc1ccc2c(c1)C(=O)N(C)C2=O	i
O=C(Nc1c(Cl)cc(Cl)cc1C(=O)Nc1ccccc1Cl)c1ccc(Cl)cc1Cl	0%
CC1CCN(C(=O)COc2ccc(S(=O)(=O)N(C)Cc3ccccc3)cc2)CC1	3%
Cc1nc(SCC(=O)NC2CC3CCC2C3)nc2c1CCCC2 (stereo unspecified)	i
CCCn1nnc(NC(=O)COc2ccc(CC)cc2)n1	?
CC(Sc1nc2ccccc2s1)C(=O)O (stereo unspecified)	3%
CC(=O)Cn1cnc2scc(-c3ccccc3)c2c1=O	i
CC(=O)Nc1cccc(Cn2cccn2)c1	0%
C=CCN(c1ccc(C(=O)Nc2ccccc2-c2ccccc2)cc1)S(C)(=O)=O	i
CCCC(=O)N1CCN(c2ccc(N)cc2)CC1	i
CCOC(=O)Nc1ccc(-c2ccc(NC(=O)OCC)c(C)c2)cc1C	i
CC(=O)Nc1ccc2c(c1)nc1n2CCN(Cc2ccccc2)C1	i
COc1cc2c(cc1NC(=O)CCC1CCCCC1)oc1ccccc12	i
CCCCOc1ccc(OCCN2CCN(C)CC2)cc1	i
CCOc1ccccc1-c1csc(NC(=O)c2cc(OC)c(OC)c(OC)c2)n1	1%
CS(=O)(=O)N1CCN(C2CCN(Cc3ccccc3)CC2)CC1	i
Additional records.
SMILES	Mtb H37Rv
Cc1ccc(C(=O)C(C)Oc2ccc(NC(=O)c3ccccc3)cc2)cc1 (stereo unspecified)	4%
CCOc1ccc2nc(NC(=O)Nc3ccc(F)cc3)sc2c1	6%
Cn1c(=O)c2cnc(-c3ccccc3)nc2n(C)c1=O	3%
COCCNC(=O)c1ccc(C)c(Br)c1	i
CC(=O)Nc1cccc(NC(=O)c2cccc(NC(=O)C(C)C)c2)c1	i
C=CCn1cnc2scc(-c3ccc(C)cc3)c2c1=O	1%
COc1ccc(CC(=O)NCc2ccco2)cc1OC	i
Clc1cc(Cl)cc(Nc2ncnc3ccccc23)c1	15%
C=CCNCCOc1ccc(Cl)c(Cl)c1	i
O=C(Cc1c(F)cccc1Cl)NCCCn1ccnc1	i
O=C(CSc1nnc2sc3ccccc3n12)Nc1ccc(Cl)cc1	i
O=C(C1=C(O)C(=O)N(CC2CCCO2)C1c1cccs1)c1ccco1 (stereo unspecified)	1%
Cc1nc(NC(=O)C(Cl)Cl)sc1C(=O)N(C)C	i
Oc1cccc(Nc2ncnc3ccc(I)cc23)c1	i
Cc1cc(OCCOCCN2CCCC(C)C2)cc(C(C)C)c1 (stereo unspecified)	i
O=C1CC(N2CCN(C3CCc4ccccc4C3)CC2)C(=O)N1c1ccccc1 (stereo unspecified)	i
CCCOc1ccc(/C=N/NS(=O)(=O)c2ccc3ccccc3c2)cc1OC	3%
CCN1CCN(C(=S)c2ccc(Br)cc2)CC1	i
Cc1ccc(C(=O)Nc2ccc(S(=O)(=O)NC(C)(C)C)cc2)cc1Br	i
CN(C)CCNC(=O)c1cc(Br)ccc1Cl	i
O=C(CCN1C(=O)C2C3C=CC(C3)C2C1=O)Nc1ccc(Br)cc1Cl (stereo unspecified)	i
COc1ccccc1CC(=O)O/N=C(\N)c1cccc(C)c1	i
COc1cccc(C(=O)N2CCN(S(=O)(=O)c3ccc(NC(C)=O)cc3)CC2)c1	i
C=CCOc1ccccc1CNCc1cccnc1	i
Cn1c(SCC(=O)NCCO)nc2ccccc2c1=O	4%
(list continues)
SMILES	Mtb H37Rv
CC1CC(=O)C2=C(C1)Nc1ccccc1NC2c1ccco1 (stereo unspecified)	i
CCCCC(=O)Nc1cccc(NC(=S)NC(=O)c2ccc(OCC)cc2)c1	12%
O=C(NC(=S)NCCN1CCOCC1)c1cccc(Cl)c1	i
CC(C)CN1C(=O)c2cccc3cc(Br)cc(c23)C1=O	i
CCCCC(=O)Nc1ccc(NC(=S)NC(=O)c2ccc(-c3cccc(Cl)c3)o2)cc1OC	i
Cc1cc(C)cc(NC(=S)NCc2ccccc2Cl)c1	32%
O=C1CC(c2ccc(Cl)cc2Cl)c2cc3c(cc2N1)CCC3 (stereo unspecified)	i
COc1ccc(OC)c(NC(=O)c2ccc(C)c(Br)c2)c1	1%
O=C(COc1nc2ccccc2s1)N1c2ccccc2Sc2ccccc21	2%
CCC1(CC)Cc2ccccc2C(N)=C1C#N	1%
Brc1ccc(CN2CCN(Cc3ccccc3)CC2)s1	i
COc1ccc(CSc2nnc(-c3ccccc3)n2N)cc1	i
COc1ccccc1NC(=S)NCCc1ccc(F)cc1	3%
O=C(Nc1ccc(N2CCN(Cc3ccccc3)CC2)cc1)c1ccc(Br)o1	i
COc1ccc(-c2nc3ccccc3c(C(=O)Nc3ccc(F)cc3F)c2C)cc1	i
COc1ccc(NS(=O)(=O)c2ccc(NS(=O)(=O)c3cccs3)cc2)c(OC)c1	i
Fc1ccc(COc2ccc(C(=S)N3CCCC3)cc2)cc1	i
COc1ccc2cc(Br)ccc2c1CC(=O)Nc1nc2c(s1)CCCC2	1%
CCOC(=O)C1=C(C)NC(=O)NC1c1ccc(OC(=O)c2ccco2)cc1 (stereo unspecified)	i
COc1ccccc1NC(=O)c1cnn(-c2ccccc2)c1NC(=O)c1ccc(C)cc1	2%
O=C(c1ccc(Cl)cc1)N(Cc1ccccc1F)N1C(=O)C2C3C=CC(C3)C2C1=O (stereo unspecified)	i
O=C(Nc1ccc(N2CCOCC2)cc1)C1CC(=O)N(c2ccc(Cl)cc2)C1 (stereo unspecified)	i
COc1ccccc1-n1c(N)cc(=O)nc1SCC(=O)Nc1cc(C)on1	i
CCOC(=O)c1c(NC(=O)c2cc(OC)c(OC)c(OC)c2Br)sc2c1CCC2	i
NC(=S)c1cc2ccccc2oc1=O	i
Further structures follow:
SMILES	Mtb H37Rv
COc1ccc(S(=O)(=O)N2CCN(C3Cc4ccccc4C3)CC2)cc1	i
O=C(NC(c1ccccc1)c1ccccc1)c1ccccc1F	i
O=C(Nc1ccc(Oc2ccccc2)cc1)C1CCC(N2C(=O)C3CCCCC3C2=O)CC1 (stereo unspecified)	i
Cc1cc(C(=O)Nc2cccc(Cl)c2N2CCOCC2)ccc1[N+](=O)[O-]	14%
O=C(NCCCN1CCCC1=O)c1cc(-c2ccc3c(c2)OCO3)nc2ccccc12	i
N#Cc1sc2nc3c(c(-c4cccnc4)c2c1N)CCCC3	i
O=C(CN1CCNCC1)Nc1ccc(Oc2ccccc2)cc1	i
Cc1ccc(S(=O)(=O)N(c2ccccc2C)C(F)F)cc1	i
CC(C)CC(NC(=O)c1ccccc1Cl)c1nnc(SCC(=O)Nc2nccs2)n1C (stereo unspecified)	1%
COc1ccc(CCNC(=O)c2ccc(N(Cc3ccccc3Cl)S(C)(=O)=O)cc2)cc1OC	4%
CCc1ccc(OC(=O)CCN2C(=O)C3C4c5ccccc5C(c5ccccc54)C3C2=O)cc1 (stereo unspecified)	i
Cc1c(C(C)C)c(=O)oc2cc(OCC(=O)c3ccc(Cl)cc3)ccc12	3%
CC(C)CN(CC(C)C)C(=O)C1CCCCC1	3%
CCOc1ccc(Nc2nc(CC(=O)OC)cc(=O)[nH]2)cc1	i
Cc1ccc(N2C(=O)c3ccc4c5c(c(Cl)cc(c35)C2=O)C(=O)N(c2ccc(C)cc2)C4=O)cc1	i
Cc1cccc(C(=O)N2CCN(c3ccc([N+](=O)[O-])c(NCc4cccnc4)c3)CC2)c1	i
OCCN(CC#CCC(O)(c1ccccc1)c1ccccc1)CCO	i
CSc1ccccc1C(=O)NCCC1=CCCCC1	39%
Cc1ccc(C(C)C)c(OCC(O)CN2CCN(c3ccccc3F)CC2)c1 (stereo unspecified)	?
CN(C)c1ccc(C(=S)N2CCCC2)cc1Br	i
CC(=O)Nc1ccc(NC(=O)CSCc2ccccc2Cl)cc1	i
O=C(Cc1ccc(Cl)cc1)Nc1ccccc1N1CCOCC1	i
CC(C)(C)c1ccc(C(=O)N2CCC(C(=O)Nc3cccc(F)c3)CC2)cc1	3%
Cc1ccccc1OCC(=O)Nc1ccc(OC(C)C)cc1	i
Cc1ccc(OCC(=O)Oc2ccc(Br)cc2Cl)cc1	i

Brought forward from above: twelve compounds; new compounds follow.
SMILES	Mtb H37Rv
CCOc1ccc(Nc2nc(CC(=O)OC)cc(=O)[nH]2)cc1	i
Cc1ccc(N2C(=O)c3ccc4c5c(c(Cl)cc(c35)C2=O)C(=O)N(c2ccc(C)cc2)C4=O)cc1	i
Cc1cccc(C(=O)N2CCN(c3ccc([N+](=O)[O-])c(NCc4cccnc4)c3)CC2)c1	i
OCCN(CC#CCC(O)(c1ccccc1)c1ccccc1)CCO	i
CSc1ccccc1C(=O)NCCC1=CCCCC1	39%
Cc1ccc(C(C)C)c(OCC(O)CN2CCN(c3ccccc3F)CC2)c1 (stereo unspecified)	?
CN(C)c1ccc(C(=S)N2CCCC2)cc1Br	i
CC(=O)Nc1ccc(NC(=O)CSCc2ccccc2Cl)cc1	i
O=C(Cc1ccc(Cl)cc1)Nc1ccccc1N1CCOCC1	i
CC(C)(C)c1ccc(C(=O)N2CCC(C(=O)Nc3cccc(F)c3)CC2)cc1	3%
Cc1ccccc1OCC(=O)Nc1ccc(OC(C)C)cc1	i
Cc1ccc(OCC(=O)Oc2ccc(Br)cc2Cl)cc1	i
O=C(CSCc1ccc(Cl)cc1Cl)Nc1cccc(-c2nnc(-c3ccccc3)o2)c1	5%
COc1ccc(CCNC(=O)C2CCN(C(=O)c3ccc(Br)cc3)CC2)cc1OC	i
Cc1ccccc1NC(=O)CN(c1ccc(F)cc1)S(=O)(=O)c1ccc2c(c1)OCCO2	2%
Cc1cc(I)cc(C)c1NC(=O)CSCc1ccccc1	i
Cc1ccc(NC(=O)COC(=O)c2cccs2)c(C)c1	15%
CCc1ccccc1OCC(=O)Nc1nc2ccc([N+](=O)[O-])cc2s1	i
CCC(=O)N1CCNC(=O)C1CC(=O)Nc1ccc(C)c(Cl)c1 (stereo unspecified)	i
Cc1ccc(NC(=O)C2CCCCC2)cc1NC(=O)c1ccc(Cl)cc1	i
C=CCOc1ccc(CNc2ccc(N3CCCC3)cc2)cc1OC	11%
Cc1ccc(C(=O)NC(=S)Nc2ccc(S(=O)(=O)NC(C)(C)C)cc2)cc1	i
CC(=O)c1c(C(C)=O)c(C)n(-c2ccc(I)cc2)c1C	1%
Cc1cc(C)c(NC(=S)NC(=O)c2ccccc2Br)c(C)c1	i
COC(=O)c1sc2nc(-c3ccccc3)nc(N3CCN(C)CC3)c2c1C	i
CCCn1nnnc1NC(=O)Cc1ccccc1	i
COc1cc(OC)cc(C(=O)Nc2ccc(S(=O)(=O)N3CCC(C)CC3)cc2)c1	i
COc1cc(NC(=O)c2sc3cc(Cl)ccc3c2Cl)ccc1NC(=O)C(C)C	3%
Cc1ccc(-c2nc3cc(Cl)ccc3c(=O)o2)cc1	i

The list is partial; count on the stated rates, not on these rows.
